# Env fusion inh = HIV envelope-mediated fusion inhibition | 360,000 compounds, 1.1% hits | HeLa-JRFL Env/CEM21 cell fusion, luciferase | inhibition, % at 12.3 µM;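 active = mean replicate inhibition score of at least 50 and every replicate individually at or above 50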;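 note: 0% = plate neutral controls and 100% = maraviroc near 300 nM; one replicate is shown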
# Yeast UUG start = yeast start codon fidelity modulation; S. cerevisiae UUG-firefly luciferase reporter, luminescence/redox ratio; activity score, % at 18.7 µM; 350,000 compounds, 0.13% hits; AID 602363;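 active = replicate mean at a twofold rise or more, about +100% in these data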;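 note: firefly luciferase made from a UUG start codon reports start codon fidelity; reporter light over untreated wells divided by growth signal over untreated wells; some hits fall short of that in this replicate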
# Starred values were filed as active, the others as inactive; & = joins results of further samples; [ ] = another dose, or the depositor's remark. Not all compounds are listed; rates above refer to the full screens.
SMILES,Env fusion inh,Yeast UUG start
O=C(N[C@H]1CC[C@@H](CC(=O)N2CCN(c3ccccc3)CC2)O[C@@H]1CO)c1ccccc1,20[16.7 µM],16
C[C@@H]1CN([C@@H](C)CO)C(=O)c2cc(NC(=O)CCN3CCOCC3)ccc2O[C@@H]1CN(C)Cc1ccccc1,8[16.7 µM],2
C[C@H](CO)N1C[C@H](C)[C@H](CN(C)C(=O)Nc2ccc(F)cc2)Oc2ncc(-c3ccc(F)cc3)cc2C1=O,12&21[16.7 µM],-7&19
C[C@@H]1CN([C@H](C)CO)C(=O)c2cccc(NS(=O)(=O)c3cccs3)c2O[C@@H]1CN(C)CC1CC1,-11[16.7 µM],-10
O=C(NCC[C@H]1CC[C@@H](NS(=O)(=O)c2cccc(F)c2)[C@H](CO)O1)C1CCCC1,-2[16.7 µM],-8
CNC[C@@H]1Oc2ccc(NC(=O)NC(C)C)cc2C(=O)N([C@@H](C)CO)C[C@H]1C,-1[16.7 µM],-11
CN1C(=O)c2cc(NS(=O)(=O)c3ccccc3Cl)ccc2OC[C@@H]2O[C@H](CC(=O)O)CC[C@H]21,-10[16.7 µM],-6
C[C@@H]1CN([C@@H](C)CO)C(=O)c2cc(NS(=O)(=O)c3ccccc3)ccc2O[C@H]1CN(C)C(=O)Nc1ccccc1,-25[16.7 µM],-4
C[C@@H]1CN([C@@H](C)CO)C(=O)c2cccc(NC(=O)C3CC3)c2O[C@H]1CN(C)C,-1[16.7 µM],-12
Cc1noc(C)c1S(=O)(=O)Nc1ccc2c(c1)C(=O)N([C@@H](C)CO)C[C@@H](C)[C@@H](CN(C)C(=O)Nc1ccc(F)cc1)OCCCC[C@@H](C)O2,-25[16.7 µM],10
O=C(C[C@H]1C=C[C@H](NS(=O)(=O)c2ccccc2)[C@H](CO)O1)NCc1ccccc1F,-14[16.7 µM],-5
CCCN(C)C[C@H]1OCCCC[C@H](C)Oc2ccc(NS(=O)(=O)c3ccccc3)cc2C(=O)N([C@H](C)CO)C[C@H]1C,-9[16.7 µM],4
COc1cccc(C#Cc2ccc3c(c2)O[C@@H](CN(C)S(=O)(=O)c2ccccc2F)[C@H](C)CN([C@H](C)CO)S3(=O)=O)c1,42[16.7 µM],-27
C[C@H](CO)N1C[C@H](C)[C@@H](CN(C)C(=O)Nc2cccc3ccccc23)OCCCC[C@H](C)Oc2ccc(NC(=O)CCCN(C)C)cc2C1=O,8[16.7 µM],0
C[C@@H]1CN([C@@H](C)CO)C(=O)c2cc(NC(=O)C3CCCCC3)ccc2O[C@@H]1CN(C)S(=O)(=O)c1cn(C)cn1,-37[16.7 µM],0
C[C@@H]1CN([C@H](C)CO)C(=O)c2cc(/C=C/c3ccccc3)cnc2O[C@H]1CN(C)C,-66[16.7 µM],2
CNC[C@@H]1OCCCC[C@H](C)Oc2ccc(NS(=O)(=O)c3ccc(Cl)cc3)cc2C(=O)N([C@H](C)CO)C[C@@H]1C,-12[16.7 µM],49
C[C@H](CO)N1C[C@H](C)[C@@H](CN(C)C(=O)Nc2ccccc2F)Oc2ncc(-c3cccc(F)c3)cc2C1=O,20[16.7 µM],-6
C[C@@H]1CN([C@@H](C)CO)C(=O)c2cc(NC(=O)c3ccccc3)ccc2O[C@@H](C)CCCCO[C@H]1CN(C)C(=O)CCC(F)(F)F,-20[16.7 µM],-1
O=C(C[C@@H]1C[C@H]2c3cc(NC(=O)NC4CCCCC4)ccc3O[C@H]2[C@H](CO)O1)NCc1ccccn1,-8[16.7 µM],75*
CNC(=O)C[C@H]1CC[C@@H]2[C@H](COc3ccc(NC(=O)Cc4cccs4)cc3C(=O)N2C)O1,-9[16.7 µM],12
C[C@@H]1CN([C@@H](C)CO)C(=O)Cc2cc(NC(=O)Nc3ccccc3)ccc2O[C@@H]1CN(C)C,-1[16.7 µM],-10
O=C(CN1CCOCC1)NCC[C@H]1CC[C@H](NC(=O)c2ccc3c(c2)OCO3)[C@@H](CO)O1,12[16.7 µM],-11
CO[C@H]1CN(C)C(=O)c2cc(NS(=O)(=O)c3ccc(Cl)cc3)ccc2OC[C@H](C)N(C)C[C@H]1C,-5[16.7 µM],-12
CC(C)CC#Cc1ccc2c(c1)O[C@H](CN(C)C(=O)c1cccnc1)[C@H](C)CN([C@@H](C)CO)S2(=O)=O,-5[16.7 µM],-5
O=C(C[C@H]1CC[C@H](NS(=O)(=O)c2cccc(F)c2)[C@H](CO)O1)NCc1ccc2c(c1)OCO2,10[16.7 µM],-13
C[C@@H]1CCCCO[C@H](CN(C)C(=O)Nc2ccccc2)[C@@H](C)CN([C@@H](C)CO)C(=O)c2cc(NS(=O)(=O)c3cn(C)cn3)ccc2O1,-39[16.7 µM],-4
C[C@H](CO)N1C[C@H](C)[C@@H](CN(C)S(=O)(=O)c2ccccc2)OCCCC[C@H](C)Oc2ccc(NC(=O)Cc3ccccc3)cc2C1=O,-19[16.7 µM],-5
COc1ccc(CN(C)C[C@@H]2Oc3ccc(NC(=O)Nc4c(C)noc4C)cc3C(=O)N([C@@H](C)CO)C[C@H]2C)cc1,1[16.7 µM],-20
COc1ccc(CN(C)C[C@@H]2OCCCC[C@@H](C)Oc3ccc(NS(=O)(=O)c4ccccc4)cc3C(=O)N([C@@H](C)CO)C[C@@H]2C)cc1,-45[16.7 µM],14
C[C@@H]1CN([C@@H](C)CO)C(=O)Cc2cc(NS(=O)(=O)c3cccs3)ccc2O[C@@H]1CN(C)Cc1ccc(C(=O)O)cc1,15[16.7 µM],0
C[C@H](CO)N1C[C@H](C)[C@H](CN(C)S(=O)(=O)c2cn(C)cn2)Oc2ncc(/C=C/c3ccccc3)cc2C1=O,23&17[16.7 µM],4&17
CC(C)NC(=O)N(C)C[C@H]1Oc2ccc(NC(=O)C3CCCCC3)cc2CC(=O)N([C@@H](C)CO)C[C@@H]1C,8[16.7 µM],0
COc1ccc(C#Cc2ccc3c(c2)[C@]2(C(=O)N3)[C@H](C(=O)N3CCCCCCC3)[C@H]3C(=O)O[C@H](c4ccccc4)[C@H](c4ccccc4)N3[C@@H]2c2ccc(O)cc2)cc1,21[16.7 µM],-1
C[C@@H]1CCCCO[C@@H](CN(C)C(=O)Nc2ccc(C(F)(F)F)cc2)[C@H](C)CN([C@H](C)CO)C(=O)c2cc(NS(=O)(=O)c3ccc(F)cc3)ccc2O1,-78[16.7 µM],24
Cc1noc(C)c1S(=O)(=O)Nc1ccc2c(c1)C(=O)N([C@H](C)CO)C[C@H](C)[C@@H](CN(C)Cc1ccc(Cl)c(Cl)c1)OCCCC[C@@H](C)O2,-6[16.7 µM],4
Cc1ccc(S(=O)(=O)NCC[C@@H]2CC[C@@H](NC(=O)Nc3cccc(F)c3)[C@H](CO)O2)cc1,0[16.7 µM],22
COc1ccccc1NC(=O)N(C)C[C@H]1Oc2ncc(C#CCN(C)C)cc2C(=O)N([C@@H](C)CO)C[C@@H]1C,6[16.7 µM],4
C[C@@H]1CN([C@H](C)CO)C(=O)c2cc(-c3ccc(F)cc3)cnc2O[C@H]1CN(C)Cc1cccnc1,-5[16.7 µM],-8
C[C@@H]1CN([C@@H](C)CO)C(=O)c2cccc(N(C)C)c2O[C@H]1CN(C)C(=O)Nc1cccc2ccccc12,-6[16.7 µM],23
C[C@@H]1CN([C@H](C)CO)C(=O)Cc2cc(NS(=O)(=O)c3ccccc3)ccc2O[C@@H]1CN(C)C(=O)Nc1cccc2ccccc12,22[16.7 µM],9
C[C@@H]1CN([C@@H](C)CO)S(=O)(=O)c2ccc(-c3cncnc3)cc2O[C@@H]1CN(C)Cc1cncnc1,-6[16.7 µM],-15
C[C@@H]1CN([C@@H](C)CO)S(=O)(=O)c2ccc(-c3cncnc3)cc2O[C@H]1CN(C)Cc1ccccc1,-5[16.7 µM],1
C[C@@H]1CN([C@H](C)CO)C(=O)c2cc(NS(=O)(=O)c3cccs3)ccc2O[C@@H](C)CCCCO[C@H]1CN(C)Cc1ccc2c(c1)OCO2,-5[16.7 µM],21
CCCC#Cc1ccc2c(c1)O[C@H](CN(C)C(=O)c1ccccc1)[C@@H](C)CN([C@H](C)CO)S2(=O)=O,-40[16.7 µM],-1
Cc1noc(C)c1NC(=O)Nc1ccc2c(c1)C(=O)N([C@@H](C)CO)C[C@@H](C)[C@@H](CN(C)C(=O)Nc1ccc3c(c1)OCO3)OCCCC[C@@H](C)O2,23[16.7 µM],33
C[C@H]1CN([C@@H](C)CO)S(=O)(=O)c2ccc(-c3cccnc3)cc2O[C@H]1CN(C)C(=O)C1CCC1,4[16.7 µM],-10
O=C(N[C@H]1CC[C@@H](CCNC(=O)C2CCC2)O[C@@H]1CO)c1ccccn1,14[16.7 µM],-4
Cc1ccc(S(=O)(=O)N[C@@H]2CC[C@@H](CC(=O)NCCc3ccncc3)O[C@H]2CO)cc1,8[16.7 µM],0
CCC(=O)N1C[C@H](C)[C@@H](OC)CN(C)C(=O)c2cc(NC(=O)C3CC3)ccc2OC[C@@H]1C,8[16.7 µM],6
COCC#Cc1ccc2c(c1)O[C@@H](CN(C)C(=O)C1CCCCC1)[C@H](C)CN([C@@H](C)CO)S2(=O)=O,-11[16.7 µM],-17
O=C(NCC[C@H]1CC[C@@H](NC(=O)C2CCCC2)[C@H](CO)O1)c1ccc(F)cc1,15[16.7 µM],-9
C[C@@H]1CCCCO[C@H](CN(C)C(=O)CCC(F)(F)F)[C@@H](C)CN([C@@H](C)CO)C(=O)c2cc(NC(=O)c3ccccc3)ccc2O1,-7[16.7 µM],15
Cc1ccc(S(=O)(=O)Nc2ccc3c(c2)C(=O)N([C@H](C)CO)C[C@@H](C)[C@H](CN(C)S(=O)(=O)c2ccccc2)OCCCC[C@H](C)O3)cc1,-11[16.7 µM],-14
C[C@@H]1CN([C@@H](C)CO)C(=O)c2cc(NC(=O)Nc3ccc4c(c3)OCO4)ccc2O[C@@H](C)CCCCO[C@@H]1CN(C)CC1CCCCC1,-3[16.7 µM],1
C[C@@H]1CN([C@H](C)CO)C(=O)Cc2cc(NC(=O)Nc3ccccc3)ccc2O[C@H]1CN(C)Cc1ccc(C(F)(F)F)cc1,-1[16.7 µM],35
COc1ccccc1NC(=O)N[C@@H]1CC[C@@H](CCNC(=O)Cc2ccccn2)O[C@@H]1CO,8[16.7 µM],-12
CN(C)C(=O)C[C@H]1CC[C@@H](NS(=O)(=O)c2ccccc2)[C@H](CO)O1,-14[16.7 µM],-7
CC(C)C#Cc1ccc2c(c1)O[C@H](CN(C)C(=O)NC(C)C)[C@H](C)CN([C@@H](C)CO)S2(=O)=O,-39[16.7 µM],16
C[C@H](CO)N1C[C@H](C)[C@H](CN(C)C(=O)Nc2ccc(F)cc2)Oc2ccc(NC(=O)Nc3cccc4ccccc34)cc2CC1=O,-17[16.7 µM],3

# Continued.
SMILES,Env fusion inh,Yeast UUG start
Cc1ccc(S(=O)(=O)N(C)C[C@@H]2Oc3ccc(NC(=O)Nc4ccc(C(F)(F)F)cc4)cc3CC(=O)N([C@H](C)CO)C[C@@H]2C)cc1,76*[16.7 µM],0
C[C@@H]1CN([C@H](C)CO)S(=O)(=O)c2ccc(C#Cc3ccc(F)cc3)cc2O[C@H]1CN(C)C(=O)NC1CCCCC1,39[16.7 µM],-1
CCCN1C[C@H](C)[C@H](OC)CN(C)C(=O)c2ccc(NC(=O)c3cccc(OC)c3)cc2OC[C@H]1C,5[16.7 µM],-2
C[C@H](CO)N1C[C@H](C)[C@@H](CN(C)Cc2ccccc2)OCCCC[C@H](C)Oc2ccc(NC(=O)c3ccccc3)cc2C1=O,7[16.7 µM],7
C[C@H]1CN([C@@H](C)CO)C(=O)c2cc(NC(=O)Cc3ccccc3)ccc2O[C@@H]1CN(C)S(=O)(=O)c1ccccc1,14[16.7 µM],25
C[C@@H]1CCCCO[C@@H](CN(C)C(=O)Nc2ccccc2)[C@@H](C)CN([C@H](C)CO)C(=O)c2cc(NC(=O)Nc3ccc(F)cc3)ccc2O1,34[16.7 µM],-8
C[C@H]1CCCCO[C@@H](CN(C)Cc2ccncc2)[C@@H](C)CN([C@@H](C)CO)C(=O)c2cc(NC(=O)Cc3ccccc3)ccc2O1,-3[16.7 µM],-1
C[C@@H]1CN([C@H](C)CO)S(=O)(=O)c2ccc(C#CCN(C)C)cc2O[C@@H]1CN(C)Cc1ccc(F)cc1,-2[16.7 µM],11
C[C@@H]1CCCCO[C@H](CN(C)C(=O)c2ccccc2)[C@@H](C)CN([C@H](C)CO)C(=O)c2cc(NS(=O)(=O)c3ccc(F)cc3)ccc2O1,1[16.7 µM],-1

# Grouped by structure: the entries above with an aryl methoxy group
SMILES,Env fusion inh,Yeast UUG start
COc1cccc(C#Cc2ccc3c(c2)O[C@@H](CN(C)S(=O)(=O)c2ccccc2F)[C@H](C)CN([C@H](C)CO)S3(=O)=O)c1,42[16.7 µM],-27
COc1ccc(CN(C)C[C@@H]2Oc3ccc(NC(=O)Nc4c(C)noc4C)cc3C(=O)N([C@@H](C)CO)C[C@H]2C)cc1,1[16.7 µM],-20
COc1ccc(CN(C)C[C@@H]2OCCCC[C@@H](C)Oc3ccc(NS(=O)(=O)c4ccccc4)cc3C(=O)N([C@@H](C)CO)C[C@@H]2C)cc1,-45[16.7 µM],14
COc1ccc(C#Cc2ccc3c(c2)[C@]2(C(=O)N3)[C@H](C(=O)N3CCCCCCC3)[C@H]3C(=O)O[C@H](c4ccccc4)[C@H](c4ccccc4)N3[C@@H]2c2ccc(O)cc2)cc1,21[16.7 µM],-1
COc1ccccc1NC(=O)N(C)C[C@H]1Oc2ncc(C#CCN(C)C)cc2C(=O)N([C@@H](C)CO)C[C@@H]1C,6[16.7 µM],4
COc1ccccc1NC(=O)N[C@@H]1CC[C@@H](CCNC(=O)Cc2ccccn2)O[C@@H]1CO,8[16.7 µM],-12
CCCN1C[C@H](C)[C@H](OC)CN(C)C(=O)c2ccc(NC(=O)c3cccc(OC)c3)cc2OC[C@H]1C,5[16.7 µM],-2

# High-throughput results (PubChem BioAssay)
